eIF4H inh: human eIF4H binding inhibitors, primary screen, translation initiation inhibitor project, biochemical, uHTS, fluorescence polarization. AID 2012, 2009. eIF4H fluorescence polarization binding assay. inhibition, % at 35 µM. Eukaryotic translation initiation factor 4H (Homo sapiens), Q15056. 290,000 tested, 0.94% active;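 active means 50% or more with normal probe brightness, or confirmed in later tests; about a fifth of its hits are not listed in these tables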;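 further: calls also rest on retests at 20 µM and on dose response follow-up; 0% = protein and probe with vehicle and 100% = probe without protein; strong numbers were not always called active; many hits fall short of the cut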
MT1-MMP act inh: blockers of MT1-MMP proenzyme processing, primary screen, HT1080 RFP-PRO-GFP cells, GFP/RFP fluorescence. Matrix metalloproteinase-14 (Homo sapiens), P50281. GFP/RFP ratio fluorescence, overnight; percent of plate control window, DMSO zero. GFP/RFP ratio change, % at 20 µM. 360,000 tested, 0.061% active. AID 651647, 2012;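 active means GFP/RFP ratio change of at least 30% with cell ATP level not reduced by more than half and red fluorescence within 50% of control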; further: strong numbers were not always called active
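Read-out: GFP/RFP fluorescence ratio; Test system: RFP-PRO-GFP reporter HT1080 cells; Compound dosing: single-point 20 µM compound, 1% DMSO; Times: overnight compound exposure at 37 °C.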
HIV Env fusion: inhibitors of HIV-1 Env-driven cell-cell fusion, primary screen, HeLa-JRFL effector, CEM21 target cells, luciferase; inhibition, % at 12.3 µM; 360,000 tested, 1.1% active; AID 651610, 2012;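 active means mean replicate inhibition score of at least 50 and every replicate individually at or above 50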;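 further: 0% = plate neutral controls and 100% = maraviroc near 300 nM; one replicate is shown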
Rce1 inhib: yeast Rce1p protease inhibitors, primary screen, biochemical, fluorescence, cell-free homogeneous; yeast membranes, quenched prenylated peptide cleavage fluorescence; calls only; 290,000 tested, 0.27% active;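 active means fall in fluorescence gain of 50% or more versus controls, with final raw signal at or below 3038400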;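 further: plate controls were neutral control wells for no effect and wells lacking membranes for full effect; tested at 10 µM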
Target sequence (Q03530 whole entry, looked up): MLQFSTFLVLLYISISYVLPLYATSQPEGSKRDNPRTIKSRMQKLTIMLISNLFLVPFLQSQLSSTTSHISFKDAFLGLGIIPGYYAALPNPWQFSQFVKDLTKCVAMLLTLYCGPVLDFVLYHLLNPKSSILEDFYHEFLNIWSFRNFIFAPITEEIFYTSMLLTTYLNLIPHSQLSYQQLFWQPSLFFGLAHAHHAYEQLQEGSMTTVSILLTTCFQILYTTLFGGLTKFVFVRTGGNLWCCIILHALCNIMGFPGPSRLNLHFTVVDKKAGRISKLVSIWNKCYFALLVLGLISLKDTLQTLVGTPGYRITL
PABP FP inh: PABP poly(A) RNA binding inhibitors, primary screen, biochemical, fluorescence polarization, uHTS | inhibition, % at 35 µM | 290,000 tested, 1% active | Polyadenylate-binding protein 1 (Homo sapiens), P11940;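 active means 50% or more with normal probe brightness, or confirmed in later tests; about a fifth of its hits are not listed in these tables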;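 further: calls also rest on retests at 20 µM and on dose response follow-up; controls were probe without protein and protein plus probe with vehicle; some compounds called inactive have numbers as strong as hits; many hits fall short of the cut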
CSC inhib: cancer stem cell viability inhibitors, primary screen, luminescence. 300,000 tested, 1.1% active. cancer stem cell-like cells viability. inhibition, % at 7.5 µM;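 active means mean at 75% or more and at least half the replicates too; tested in HMLE shEcad cells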;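 further: 0% = median of negative and 100% = median of positive control wells; the first replicate is given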
Yeast UUG start: modulators of yeast start codon fidelity, primary screen, whole organism, S. cerevisiae, single point, plate reader. S. cerevisiae UUG-firefly luciferase reporter, luminescence/redox ratio. activity score, % at 18.7 µM. 350,000 tested, 0.13% active. AID 602363, 2012;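 active means replicate mean at a twofold rise or more, about +100% in these data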;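 further: firefly luciferase made from a UUG start codon reports start codon fidelity; reporter light over untreated wells divided by growth signal over untreated wells; some hits fall short of that in this replicate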
eIF4H inh retest: recorded beside eIF4H inh, whose call it bears; inhibition, %; compound at 20 µM; confirmation average;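 mean of two retest wells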
PABP FP inh retest: also measured in PABP FP inh; calls as there; inhibition, %; compound at 20 µM; confirmation repeats;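 mean of two retest wells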
MT1-MMP act inh RFP: further read-out of MT1-MMP act inh, marked with its call; RFP signal change, %; measured here: RFP expression control read;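 0 = vehicle wells; hits needed this value within 50% of zero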
Starred values were filed as active, the others as inactive; i = inactive; x = no result given.

SMILES	eIF4H inh	MT1-MMP act inh	MT1-MMP act inh RFP	HIV Env fusion	Rce1 inhib	PABP FP inh	CSC inhib	Yeast UUG start	others
CCOC(=O)C1(C(F)(F)F)N=C(C(F)(F)F)Nc2cc(C)c(C)cc21 (stereo not drawn)	8	-4	3	5	i	1	-19	x
O=C(Nc1ncc(Cc2ccccc2Cl)s1)c1ccc(-c2cccc([N+](=O)[O-])c2)o1	-11	3	-9	6	i	14	45	-1
O=C(CN1CCCCC1)N1CCN(c2ccccc2)CC1	10	-8	-4	14	i	0	3	3
C/C(N)=C(/C#N)C(=O)CSc1nnc(NC(C)C)s1	33	-1	4	-31	i	40	0	x
CCc1cc(SC#N)cc(CC)c1NC(=O)CCl	-5	1	2	x	i	-8	22	x
O=[N+]([O-])c1cccc(-c2noc3c2-c2nc(Cc4cccc5ccccc45)sc2CC3)c1	x	2	-2	-12	i	x	2	-20
COc1cc(NC(=O)COC(=O)Cc2ccc(-c3ccccc3)cc2)cc(OC)c1	6	3	3	17	i	0	-5	x
CC(Sc1nnc(-c2ccccc2Br)o1)C(=O)N1CCOCC1 (stereo not drawn)	2	-1	2	13	i	-13	-3	3
Cc1ccc(-c2ccc(=O)n(Cc3ccc(F)cc3)n2)cc1	2	1	-8	8	i	9	0	-8
O=C(COc1ccc(Cl)cc1)NCCCNC(=O)c1ccncc1	2	1	-1	-3	i	-7	x	-11
CCOC(=O)c1c(C)n(C)c2ccc(OCC(O)CN3CCCCCC3)cc12 (stereo not drawn)	6	4	-2	-18	i	14	-10	1
CC(=O)Nc1ccc(CN2CCC(Oc3ccc(C(=O)N4CCCC4)cc3)CC2)cc1	-13	-8	0	x	i	-10	10	-6
COc1ccc(NC(=O)Cn2nnc(C(=O)NCCc3ccc(OC)c(OC)c3)c2N)c(OC)c1	-6	-3	1	8	i	-2	-14	x
CCn1c(SCC(=O)N2CCCC(C)C2)nnc1-c1ccc(S(=O)(=O)N2CCN(C)CC2)cc1 (stereo not drawn)	7	-2	1	-83	i	-6	8	-12
Cc1ccc(-c2noc(CCC(=O)NCC3CCN(Cc4cccc(C)c4)CC3)n2)cc1	2	1	-4	x	i	-1	-4	31
CC(=O)n1cc([C@@H]2C=C(C(=O)N3CCOCC3)O[C@H](OCc3ccc(CO)cc3)C2)c2ccccc21	-4	-1	0	-27	i	2	3	-9
CC1CCCC(NC(=O)COC(=O)COc2ccc(Br)cc2)C1C (stereo not drawn)	x	-1	3	x	x	x	-19	-8
COC(=O)C1=C(C)Nc2c(c(=O)n(C)c(=O)n2C)C1c1cccnc1 (stereo not drawn)	-7	2	3	x	i	26	-18	-17
NCCCC[C@@H]1NC(=O)[C@H](CCC(=O)O)NC(=O)c2cc([N+](=O)[O-])cc(I)c2SC[C@@H](C(=O)NCC(N)=O)NC1=O	14	10	6	1	i	10	3	119*
COc1ccccc1/C=C(/C(=O)OCC(=O)Nc1ccc(N(C)C)cc1)c1ccccc1	-4	1	0	-6	i	-4	32	x
O=C(Nc1ccccc1N1CCOCC1)C1=NN(c2ccccc2)C(=O)CC1	x	0	1	-17	x	x	x	-5
CN(CC(=O)Nc1ccc(OC(F)(F)F)cc1)C(=O)Cc1ccc2c(c1)CCC2	x	-2	0	x	x	x	1	-18
CC1C(Br)C(=O)NC(=O)N1Cc1ccccc1 (stereo not drawn)	-10	-5	0	-16	i	4	x	x
CCc1nnc(NC(=O)Cc2cc(OC)c(OC)c(OC)c2)s1	-1	1	3	-12	i	7	2	-1
CC[N+]1(CC)CC2CCC(C)(C1)C2(C)C (stereo not drawn)	8	-2	0	-6	i	-4	-20	-6

Overlap with the part before: 2 entries, followed by the next part.
SMILES	eIF4H inh	MT1-MMP act inh	MT1-MMP act inh RFP	HIV Env fusion	Rce1 inhib	PABP FP inh	CSC inhib	Yeast UUG start	others
CCc1nnc(NC(=O)Cc2cc(OC)c(OC)c(OC)c2)s1	-1	1	3	-12	i	7	2	-1
CC[N+]1(CC)CC2CCC(C)(C1)C2(C)C (stereo not drawn)	8	-2	0	-6	i	-4	-20	-6
O=C(OCC#CCSc1nnc(-c2cccc3ccccc23)o1)c1ccco1	-2	2	0	-33	i	-3	0	-10
COc1cccc(C2CC(C(F)(F)F)n3nc(C(=O)NCc4cccnc4)cc3N2)c1 (stereo not drawn)	4	-1	-1	x	i	-3	-10	x
CCC1Oc2ccccc2N(CC(=O)NCc2cccs2)C1=O (stereo not drawn)	-6	12	4	6	i	-7	-14	x
COc1ccc(-c2csc(C(C)(NC(C)=O)c3ccc(OC)cc3)n2)cc1 (stereo not drawn)	x	-4	-9	10	x	x	x	-16
O=C(c1cccs1)N1C[C@@H](O)[C@H](n2cc(-c3ccc(F)cc3)nn2)C[C@@H]1c1ccccc1	x	-4	-8	9	x	x	x	-1
Cc1nonc1CN(C)C(=O)CC1C(=O)NCCN1Cc1c(F)cccc1Cl (stereo not drawn)	-9	-1	3	-14	i	9	-13	0
O=C(CCc1c[nH]c2ccccc12)NCc1cccc(Cl)c1	3	0	-1	0	i	6	x	-1
COc1ccccc1NC(=O)Cc1noc(CSc2cccc[n+]2[O-])n1	-5	-1	0	x	i	10	-2	20
COc1ccc(OC)c(NC(=O)C2=C(C)Nc3ncnn3C2c2cccs2)c1 (stereo not drawn)	-4	2	3	x	i	-7	-1	-10
COc1cccc(NC(=O)Cn2c3ccccc3c3nc4n(c(=O)c32)CCS4)c1	1	1	2	-9	i	8	2	x
CN(C)c1ccnc2sc(C(N)=O)c(N)c12	-3	-8	-6	x	i	10	5	-11
CCOC(=O)N/N=C/c1cc(OC)c(O)c(OC)c1	0	1	0	-18	i	-5	x	x
CCN(CC(=O)Nc1ccccc1C(F)(F)F)C(=O)c1oc2ccc(OC)cc2c1C	x	3	-1	-51	i	x	2	x
CC(=O)Oc1ccc(/C=C2/CCc3ccccc3C2=O)cc1	-5	-10	-4	3	i	5	5	-67
CCN(CC)S(=O)(=O)c1cccc(NC(=O)COC(=O)/C=C/c2ccco2)c1	69*	-1	3	-15	i	1	0	-9	eIF4H inh retest=90*;PABP FP inh retest=41
COCCCn1c(SCC(=O)Nc2ccc(NC(=O)c3ccco3)c(OC)c2)nc2ccccc2c1=O	-3	-5	3	x	x	-4	x	-15
CC(C)CCn1c(=O)c2sccc2n2c(CCCC(=O)N3CCN(c4ccccn4)CC3)nnc12	-7	10	-3	-3	i	1	13	-5
O=C(CN1CCCc2ccccc21)NC(=O)NCc1ccccc1	-3	-8	1	3	i	8	-3	5
Cn1c2ccc(F)cc2c2nnc(SCC(=O)Nc3cccc(O)c3)nc21	5	x	x	-21	i	6	-13	3
Cc1cc(C(=O)N(C)CC(=O)Nc2cccc(F)c2)no1	x	3	2	-9	i	x	-4	-12
CSc1ccccc1OCc1cc(C(=O)NC(C)c2cnn(C)c2)no1 (stereo not drawn)	-3	1	-3	-2	i	2	-2	-12
CCOc1ccccc1-c1nc2c(C(C)(C)C)nn(C)c2c(=O)[nH]1	0	x	x	x	i	0	-7	x
CC(=O)c1cccc(NC(=O)CSc2ccc(-c3sc(C)nc3C)nn2)c1	-14	2	-10	21	i	-2	8	-4
Clc1ccc(C=Cc2ccccn2)cc1	x	0	0	-108	x	x	x	-20
CCOc1cccc(CN2CCC(N3CCC(C(=O)NCC4CCCO4)CC3)CC2)c1 (stereo not drawn)	-1	5	3	3	i	3	-12	-10

Next section.
SMILES	eIF4H inh	MT1-MMP act inh	MT1-MMP act inh RFP	HIV Env fusion	Rce1 inhib	PABP FP inh	CSC inhib	Yeast UUG start	others
COc1cc2c(cc1OC)C(c1cc3ccccc3oc1=O)=NC(C)(C)C2	-1	-3	-2	x	i	-10	x	-5
Cc1cc(C(=O)Cn2cc(C(F)(F)F)ccc2=O)c(C)n1-c1ccccc1	-4	5	-2	3	i	4	26	x
Cc1ccc(S(=O)(=O)NC(=O)Nn2c(C)nnc2C)cc1	5	-1	7	20	i	-12	-30	-8
COc1cc2oc3cc(C)oc(=O)c3c2cc1OC	0	4	1	-11	i	4	11	x
O=c1c(/C=N/N2CCOCC2)c(C(F)(F)F)[nH]n1-c1ccccc1	-2	4	8	18	i	3	-11	1
O=C(NC1CCS(=O)(=O)C1)c1sc2ccccc2c1Cl (stereo not drawn)	-4	1	-3	2	i	-10	-10	x
CN(CC(=O)Nc1ccccc1Cl)CC(=O)c1c(N)n(Cc2ccccc2)c(=O)n(C)c1=O	x	2	0	-34	x	x	x	-8
CN(C)C(=S)NC(=O)c1cccc(Cl)c1	-7	3	5	-8	i	12	-4	-13
COc1ccc(N2CCN(C(=O)CCN3C(=O)c4ccccc4S3(=O)=O)CC2)cc1	6	-2	-2	x	i	2	-16	2
COc1ccc(C(CC(=O)N2CCN(C)CC2)NC(=O)C(F)(F)F)cc1 (stereo not drawn)	-11	-1	2	1	i	2	-1	-6
COc1ccc(C(=O)N/C(=C/c2cccs2)C(=O)NN)cc1OC	-3	4	5	9	i	0	-10	-19
CCOC(=O)C1CCCN(S(=O)(=O)c2cc(Br)cc3c2N(C(=O)C2CC2)CC3)C1 (stereo not drawn)	3	1	2	-27	i	3	4	1
CCOc1ccc(NC(=O)CCC(=O)N2CCSc3ccccc32)cc1	-11	-1	5	-30	i	-3	-3	10

6 records picked at random from the list so far:
SMILES	eIF4H inh	MT1-MMP act inh	MT1-MMP act inh RFP	HIV Env fusion	Rce1 inhib	PABP FP inh	CSC inhib	Yeast UUG start	others
COc1cc2oc3cc(C)oc(=O)c3c2cc1OC	0	4	1	-11	i	4	11	x
COc1cc2c(cc1OC)C(c1cc3ccccc3oc1=O)=NC(C)(C)C2	-1	-3	-2	x	i	-10	x	-5
CCOC(=O)C1CCCN(S(=O)(=O)c2cc(Br)cc3c2N(C(=O)C2CC2)CC3)C1 (stereo not drawn)	3	1	2	-27	i	3	4	1
Cc1cc(C(=O)Cn2cc(C(F)(F)F)ccc2=O)c(C)n1-c1ccccc1	-4	5	-2	3	i	4	26	x
COc1ccc(C(CC(=O)N2CCN(C)CC2)NC(=O)C(F)(F)F)cc1 (stereo not drawn)	-11	-1	2	1	i	2	-1	-6
CCOc1ccc(NC(=O)CCC(=O)N2CCSc3ccccc32)cc1	-11	-1	5	-30	i	-3	-3	10

An excerpt from the list above, for reference:
SMILES	eIF4H inh	MT1-MMP act inh	MT1-MMP act inh RFP	HIV Env fusion	Rce1 inhib	PABP FP inh	CSC inhib	Yeast UUG start	others
CCOC(=O)C1(C(F)(F)F)N=C(C(F)(F)F)Nc2cc(C)c(C)cc21 (stereo not drawn)	8	-4	3	5	i	1	-19	x
O=C(Nc1ncc(Cc2ccccc2Cl)s1)c1ccc(-c2cccc([N+](=O)[O-])c2)o1	-11	3	-9	6	i	14	45	-1
O=C(CN1CCCCC1)N1CCN(c2ccccc2)CC1	10	-8	-4	14	i	0	3	3
C/C(N)=C(/C#N)C(=O)CSc1nnc(NC(C)C)s1	33	-1	4	-31	i	40	0	x
CCc1cc(SC#N)cc(CC)c1NC(=O)CCl	-5	1	2	x	i	-8	22	x
O=[N+]([O-])c1cccc(-c2noc3c2-c2nc(Cc4cccc5ccccc45)sc2CC3)c1	x	2	-2	-12	i	x	2	-20

High-throughput results deposited in PubChem BioAssay by several laboratories.

A portion of the library. The share of hits here may be higher or lower than overall.
